TAR Tat displ: HIV-1 TAR-Tat binding disruption; HIV-1 TAR RNA, Tat peptide displacement FRET; active compounds read high; z-score (no concentration beside the values); 100,000 tested, 0.6% active; AID 1259389;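 further: score is relative to mean and SD of negative controls; some compounds called inactive have numbers as strong as hits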
CDC25B CDK2 inh: human CDC25B-CDK2/CyclinA binding inhibition. P30305+P24941. HTRF CDC25B-CDK2/CyclinA binding, anti-His/anti-Flag; active compounds read high. z-score (concentration not given with the values). 94,000 tested, 0.72% active;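 further: score is relative to mean and SD of negative controls; strong numbers were not always called active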
The depositor's hits bear a star; . = no result given; & = joins results of further samples.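 How the source made its calls: active means z-score from 3 up in half or more of its runs; inactive means the rest.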

mol	TAR Tat displ	CDC25B CDK2 inh
N#Cc1c2c(c(N3CCN(CCO)CC3)n3c1nc1ccccc13)CCC2	4.6	-0.71
Fc1ccccc1-c1nc(NCc2cccs2)c2ccccc2n1	.	-2.8
CCn1c(SCC(=O)NCc2ccc3c(c2)OCO3)nc2c(c1=O)SCC2	1.1	-0.98
CCC1(C)N=NC(C)(CC)C1O (configuration not stated)	.	0.15
COc1ccc(S(=O)(=O)Nc2ccc(-c3cn4ccsc4n3)cc2)cc1C	0.9	.
CCOc1ccc(CN2CCc3nc(N4CCN(C)CC4)ncc3C2)cc1OCC	0.53	.
COc1ccc(OC(=O)c2nc(S(C)(=O)=O)ncc2Cl)cc1	0.75	-1.7
CC1CS(=O)(=O)N(c2ccc(C(=O)NC3CCCC3)c(Cl)c2)C1=O (configuration not stated)	1.2	-2.1
O=C1CC(c2cc(F)ccc2F)c2c(nc(SCc3ccccc3)[nH]c2=O)N1 (configuration not stated)	0.23	0.91
CCN(CC)S(=O)(=O)c1ccc(S(=O)(=O)N(Cc2ccccn2)Cc2ccco2)cc1	-0.82	-0.57
Cc1ccc(-c2csc(-c3ccccn3)n2)cc1C	2	-0.91
CC(C)C(=O)Nc1nnc(SCc2cc(=O)n3nc(C(C)C)sc3n2)s1	-0.73	.
OCc1cnc(SCCc2ccccc2)n1Cc1ccccc1	0.81	.
CCOC(=O)CSc1nc2ccccc2s1	-0.45	-0.01
O=S(=O)(Nc1ccc2c(c1)N(S(=O)(=O)c1cccs1)CCC2)c1cccc(Cl)c1	0.9	.

New compounds follow.
mol	TAR Tat displ	CDC25B CDK2 inh
CCCN(CCC)CCNC(=O)C1CCCN(c2ncnc3c2nc2n3CCCCC2)C1 (configuration not stated)	-0.04	.
COc1cccc(OCC(O)CN2CCN(Cc3ccc4c(c3)OCO4)CC2)c1 (configuration not stated)	.	-0.22
Cc1ccc(CSc2nc3ccncc3[nH]2)cc1	1.8	.
COC(=O)c1sc2cccc(F)c2c1S(=O)(=O)Nc1ccccc1F	0.12	.
O=S(=O)(c1ccc(Cl)cc1)c1nnn2c1nc(NCc1ccc3c(c1)OCO3)c1sccc12	0.18	.
Clc1ccc(C2CC(c3cccnc3)Nc3nc4ccccc4n32)cc1 (configuration not stated)	.	-2.2
Cc1nn(S(=O)(=O)c2ccc(F)cc2)c(C)c1S(=O)(=O)N1CCCC1	0.1	.
O=C1CN(Cc2ccc(Br)cc2)S(=O)(=O)c2ccccc2N1Cc1cccc(F)c1	1.4	.
Cc1ccc2nc(NCc3ccco3)c(C=NCc3ccco3)c(=O)n2c1	.	-1.6
CSc1[nH]c2ccccc2c(=O)c1C(=O)Nc1ccccc1O	0.2	-3.6
CC12OC(C(Br)C1Br)C1C(=O)OC(=O)C12 (configuration not stated)	.	6.1*
CCOC(=O)/C(C#N)=C/Nc1ccccc1Cl	.	-2
O=S(=O)(c1ccc2nc(N3CCc4ccccc43)ccc2c1)N1CCCCC1	0.67	.
O=C1C(=O)N(CCc2ccccc2)c2ccc(Cl)cc21	1.6	0.29
CCN(CC)c1ccc(Nc2c(-c3ccc(C)c(C)c3)c(=O)c2=O)c(C)c1	-1.6	.

Later entries
mol	TAR Tat displ	CDC25B CDK2 inh
CCCNC(=O)Cn1nc(C)n2c(cc3ccccc32)c1=O	0.93	0.05
Cc1c2cnn(-c3ccccc3)c(=O)c2c(C)n1CCCC(=O)N1CCc2ccccc21	1.2	-0.45
COc1ccc(-c2nc3n(n2)C(c2cccc(OC)c2OC)C2=C(CC(C)(C)CC2=O)N3)cc1 (configuration not stated)	3.4	-0.78
O=C(O)c1ccccc1C(=O)OCCO	0.8	0.25
Cc1nnsc1C(=O)O/N=C/c1ccccc1OC(F)(F)F	.	-0.39
CC1Sc2ccc(S(=O)(=O)CCC(=O)NCc3ccccn3)cc2NC1=O (configuration not stated)	2.8	.
COC(=O)c1ccccc1CSc1nccc(C(F)(F)F)n1	.	-1.9
Nc1nc(-c2cc(-c3ccccc3)no2)cs1	.	-1.1
O=C1CSc2ccc(S(=O)(=O)N3CCN(C4CCCC4)CC3)cc2N1	1.4	.
CCC(=O)Nc1ccc2c(c1)N(CC)C(C)(C)CC2C (configuration not stated)	.	-1.5
C[C@H](Cc1ccccc1)Nc1ncnc2c1ncn2[C@@H]1O[C@H](CO)[C@H](O)C1O (some centres not stated)	.	11
CCC(C)NC(=O)N1CCC2(CC1)Nc1ccccc1-n1cccc12 (configuration not stated)	1	.
O=C(c1ccc(F)cc1)C1CCN(Cc2cnc(-c3ccccc3)[nH]2)CC1	.	-2
CN(C)C(=O)c1ccc2c(c1)N(CC(=O)NCc1ccc3c(c1)OCO3)C(=O)C1CCCCN21 (configuration not stated)	2.3	.
COc1ccc(-c2nc(-c3ccc(Cl)cc3)no2)cc1OC	0.15	0.45

Continuation:
mol	TAR Tat displ	CDC25B CDK2 inh
CCCCNC(=O)CCc1nnc2ccc(NCc3ccco3)nn12	0.93	.
CC(C(=O)NCCCN1CCOCC1)n1sc2ccccc2c1=O (configuration not stated)	0.53	-1.7
CCOC(=O)CN1C(=O)SC(CC(=O)Nc2nccs2)C1=O (configuration not stated)	.	-2.1
O=C(c1cccs1)N(c1ccc(Cl)cc1)C1C=CS(=O)(=O)C1 (configuration not stated)	.	-1.9
CSc1cccc(NC(=O)CCS(=O)(=O)c2cc3c(cc2Cl)NC(=O)CO3)c1	1.2	.
O=C1CC(c2cccc(O)c2)c2c(nc(SCc3ccccc3Cl)[nH]c2=O)N1 (configuration not stated)	0.89	-1.5
CCCc1nn2c(=O)cc(COC(=O)c3ccccc3Cl)nc2s1	-1.2	.
CN(CC(=O)N1CCN(C2CCCCC2)CC1)S(=O)(=O)c1ccc2c(c1)CCCC(=O)N2	0.18	.
O=C(CSC1=NCCS1)NCCSCc1ccco1	.	-0.73
O=c1c(N2CCN(c3ccccc3)CC2)csc2ccccc12	0.32	.
O=C1CC(c2ccc(Cl)cc2)c2cc3c(cc2N1)OCCO3 (configuration not stated)	0.59	1.4
COc1ccc2c(c1)CCc1c-2n[nH]c1C(=O)Nc1ccc2c(c1)OCCO2	0.26	.
COc1cccc2onc(N)c12	.	-2.3
C=CCOc1ccc(CNCCSc2nnnn2C)cc1OC	-1.4	-1.4
CCCNC(=O)C1CCN(S(=O)(=O)c2cnc[nH]2)CC1	-0.47	-0.45

Following part:
mol	TAR Tat displ	CDC25B CDK2 inh
Cc1cccc(NS(=O)(=O)c2ccc3[nH]c4c(c3c2)CCCC4)c1C	0.3	.
Cc1nc(Cl)c2c(n1)NC(=O)CO2	.	-0.39
C=C(C)c1cccc(C(C)(C)NC(=O)N2CCC(C)CC2)c1	0.89	-0.12
Cc1ccc2ccc(C(Nc3cccc(Cl)c3)c3ccccn3)c(O)c2n1 (configuration not stated)	0.09	-2
O=C(Cn1nnc2sc3c(c2c1=O)CCCC3)c1ccccc1	0.29	-1.3
O=[N+]([O-])c1c(Nc2ccc(Br)cc2)n[nH]c1-c1nnco1	13	11
O=S(=O)(c1cnc[nH]1)N1CCN(c2ccc(N3CCOCC3)nn2)CC1	1.1	.
COc1ccc(NC(=O)C2CCCN2c2nn3c(=O)cc(C)nc3s2)cc1 (configuration not stated)	2.7	-0.18
N#Cc1ccc(-c2c(NC(=O)NS(=O)(=O)c3ccccc3Cl)oc(-c3ccco3)c2C#N)cc1	.	-0.5
CCOC(=O)c1ccc2[nH]c(-c3ccccc3)cc(=O)c2c1	0.68	1.3
COc1ccc(S(=O)(=O)n2nc(-c3ccc(Cl)cc3)cc2N)cc1OC	0.48	-1.8
CN(CCOc1ccc(CC2SC(=O)NC2=O)cc1)c1ccccn1 (configuration not stated)	1.3&2&0.37&-0.58	.
CCS(=O)(=O)N1CCN(Cc2noc(CCC(=O)N3CCCCC3)n2)CC1	-4.6	.
CCC12CN3CC(CC)(CN(C1)C3c1ccc(F)cc1)C2O (configuration not stated)	-1.1	-1.5
Cc1cc(C)c2c(c1)sc1c(C)c(C)ccc12	.	-0.12

Other results:
mol	TAR Tat displ	CDC25B CDK2 inh
O=C1C(c2ccccc2)=C(Nc2ccc(F)cc2)c2ccccc21	0.45	-1
CCN(CC)S(=O)(=O)c1ccc2c(c1)N(CC(=O)NC(C)(C)C)C(=O)CS2	0.2	-0.66
CS(=O)(=O)Nc1nc2ccc(NC(=O)NC3CCCC3)cc2s1	1.6	.
N#Cc1c(NCc2cccnc2)ccc([N+](=O)[O-])c1NCc1cccnc1	.	-2.2
O=C1CCC(=O)N1CN1CCC(CCCC2CCN(CN3C(=O)CCC3=O)CC2)CC1	.	-0.87
COc1ccc(Sc2nncc3nnn(-c4ccc(Cl)cc4)c23)cc1	-0.06	-0.91
O=C(NCC1CCCO1)c1cnn(-c2cccc(F)c2)c1-n1cccc1 (configuration not stated)	-0.18	.
CN1C(C(=O)N2CCCc3ccccc32)=CC(c2ccc(F)cc2)=NS1(=O)=O	1.8	-2.2
CC1CC(=O)N(CC(N)=O)c2ccccc2S1 (configuration not stated)	.	-0.67
O=c1sc2ccccc2c(NCc2ccccc2)c1[N+](=O)[O-]	2.1	-1.2
Cc1oc2ncnc(N3CCOCC3)c2c1C(=O)N(Cc1ccco1)C1CCN(C)CC1	0.36	.
C[C@]12CC[C@@H]3c4ccc(O)cc4C[C@@H](CCCCCCCCCS(=O)CCCC(F)(F)C(F)(F)F)[C@H]3[C@@H]1CC[C@@H]2O (some centres not stated)	.	-0.15
CCOC(=O)n1c(=O)oc2cc(S(=O)(=O)Nc3ccc(C)cc3)ccc21	-1.4	-2.4
CCOC(=O)N1CCN([C@H]2CS(=O)(=O)C[C@@H]2S(=O)(=O)c2ccc(F)cc2)CC1	0.38	-0.53
O=C(NC1CCCC1)c1ccc2c(c1)CCN2S(=O)(=O)c1ccccc1	0.61	-0.48

(list continues)
mol	TAR Tat displ	CDC25B CDK2 inh
O=C(NCc1ccncc1)C(=O)NCc1n[nH]c(=O)c2ccccc12	1.4	.
CCOC(=O)c1cnc(SC(CC)C(=O)NC(C)C)nc1N (configuration not stated)	1.9	.
CC(C)OCCCNC(=O)Cn1ncn2c(cc3cc(F)ccc32)c1=O	-1.1	-1.1
CCC(CC)C(=O)NCCc1cc2cc(C)c(C)cc2[nH]c1=O	.	-0.96
CCOC(=O)c1cnn(C(=O)Cc2ccsc2)c1N	.	-2
CC1CCN(c2c(NCC3CCC(C(=O)N4CCc5ccccc5C4)CC3)c(=O)c2=O)CC1 (configuration not stated)	.	-3.8
O=C(COc1ccccc1Cl)OCc1cc(=O)n2nc(-c3cccs3)sc2n1	-0.6	.
CCc1nonc1NC(=O)c1oc2ccc(Br)cc2c1C	0.06	-0.25
CCOC(=O)c1sc(=S)n(-c2cc(F)ccc2F)c1N	2	.
CCOc1c(N2CCN(c3ccccc3F)CC2)c(=O)c1=O	-0.42	.
Cc1c(-n2c(CN3C(=O)c4ccccc4C3=O)nc3ccccc3c2=O)c(=O)n(-c2ccccc2)n1C	.	-3
Cc1ccc(Cn2c(N)nc3ccccc32)cc1	-1.9	-0.32
O=C(Cc1nnc(-c2ccc3c(c2)OCO3)o1)NCc1ccc(F)cc1	-1.5	-0.81
Cc1cc(-c2ccc(S(=O)(=O)N3CCc4ccccc4C3)s2)on1	0.06	.
O=C1NC(c2ccccc2OCc2ccccc2)Nc2sc3c(c21)CCCC3 (configuration not stated)	-3.3	-11

Other results:
mol	TAR Tat displ	CDC25B CDK2 inh
O=C1c2cccnc2C(Nc2ccc(F)c(Cl)c2)N1Cc1ccco1 (configuration not stated)	1.2	.
O=C(Nc1nnc(N2CCCCC2)s1)Nc1ccccc1Br	0.92	-1.6
c1ccc(-n2ncc3c(NCc4cccs4)ncnc32)cc1	.	-2.3
CCOc1ccc2nc(NC(=O)CN(C)S(=O)(=O)c3cnc[nH]3)sc2c1	0.01	-0.06
CCOC(=O)C1=C(C)NC(=O)CC1	.	-1.6
CCOC(=O)N1CCN(C(=O)CSC2=NN3CCCC(=O)N=C3S2)CC1	1.5	.
COc1ccccc1N1CCN(C2CCN(C(C)C)CC2)CC1	.	0.98
CCOC(=O)c1c(-c2ccccc2)oc2ccc(OC(C)C(=O)OCC)cc12 (configuration not stated)	.	-1.6
Cc1c(C(=O)OCC(C)C)[nH]c2c1C(=O)CC(c1ccc(N(C)C)cc1)C2 (configuration not stated)	1.9	-0.05
CNC(=O)c1nn(-c2ccc(F)cc2)nc1CO	-0.62	-0.39
Nc1cc(=O)[nH]c(SCc2nc3ccccn3c2Cl)n1	.	-0.62
COC(=O)c1scc(C#N)c1N=N/C(C(C)=O)=C(\C)O	.	0.82
Cc1nc(-c2ccc(C)c(S(=O)(=O)NCCC3=CCCCC3)c2)cs1	0.72	.
O=C1C(=O)N(CCCn2ccnc2)C(c2ccccc2)/C1=C(\O)c1ccc(F)cc1 (configuration not stated)	0.94	-0.89
O=C(Nc1nnc(C2=COCCO2)o1)c1ccc2c(c1)OCCO2	0.78	.
O=C(OCc1cc(=O)n2ccsc2n1)c1cccs1	0.3	.
Cc1ncc(-c2ccc(C)c(S(=O)(=O)NCCc3sccc3C)c2)o1	0.9	.

Entries of single compounds, quoted from the list.
Profile of `CCN(CC)S(=O)(=O)c1ccc2c(c1)N(CC(=O)NC(C)(C)C)C(=O)CS2` → TAR Tat displ: 0.2; CDC25B CDK2 inh: -0.66
Profile of `CCC12CN3CC(CC)(CN(C1)C3c1ccc(F)cc1)C2O` (configuration not stated) → TAR Tat displ: -1.1; CDC25B CDK2 inh: -1.5
Profile of `O=S(=O)(c1ccc2nc(N3CCc4ccccc43)ccc2c1)N1CCCCC1` → TAR Tat displ: 0.67; CDC25B CDK2 inh: .

Source: PubChem (Center for Chemical Genomics, University of Michigan)

Hits appear at their usual frequency (roughly 0.9% active in at least one column).
